# Biofilm kill mix: clotrimazole potentiators killing C. albicans biofilm, primary screen, 4-compound mixtures; 0.02% of 120,000 active; inhibition, % at 7.6 µM; AID 1242, 2008; C. albicans biofilm persisters + clotrimazole, fluorescence viability; primary screen in compound mixtures of four per well;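 active = inhibition above 30.3% in the primary screen of four-compound pools, then above 30% when the compound was retested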;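 also: compounds exposed to preformed 24 h biofilms for 48 h; the number belongs to the whole pool; some results filed as inactive read as strong as hits; inactives centre near 12; 0% = biofilm with clotrimazole alone and 100% = kill control; retested singly at about 60 µM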
#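 Probe or stimulus – Clotrimazole 50 µg/mL co-treatment · System – C. albicans biofilms · Schedule – 24 h biofilm formation, then 48 h compound exposure, 37 °C · Evaluation – percent inhibition of biofilm viability · Technique – 2-h Alamar Blue fluorescence, 535/590 nm excitation/emission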
# An asterisk follows results filed as active. This is a subset, so the mix of outcomes need not match the whole.
no.	molecule	Biofilm kill mix
1	OCCNc1nc(Cl)nc(NCc2ccco2)n1	22
2	COc1cc(C(=O)OCC(=O)Nc2ccc(C(C)=O)cc2)ccc1OCC(=O)N1CCOCC1	18
3	Cc1cc(/C=N/NC(=O)c2cccc(N(C)C)c2)c(C)n1-c1cc(C(=O)O)cc(C(=O)O)c1	12
4	O=[N+]([O-])c1cccc2cn[nH]c12	27
5	Cc1nc(-c2ccc(S(=O)(=O)Nc3cccc(S(N)(=O)=O)c3)s2)cs1	10
6	O=[N+]([O-])c1ccc2c(c1)ncn2-c1ccccc1	17
7	CCN(CC)c1ccc(NC(=O)CCNC(=O)c2ccco2)cc1	20
8	O=C(COC(=O)c1ccc([N+](=O)[O-])s1)Nc1ccc(Cl)cn1	9
9	COC(=O)[C@@H]1C[C@@]2(O)[C@@H](O)[C@@H](O)[C@@H](O)C[C@H]2N1Cc1ccc(-c2ccccc2)cc1	18
10	Cc1nccn1-c1ccc(C=O)cc1	-4
11	N#Cc1cnc(Sc2ccccc2)nc1	10
12	NS(=O)(=O)c1ccc(N=Nc2c(O)c(C(=O)O)cc3ccccc23)cc1	16
13	CCc1cc(C(=O)NNC(=S)Nc2ccccc2C)cs1	14
14	CC1CCCC(NC(=O)COC(=O)CCc2ccccc2)C1C (stereo not given)	10
15	c1ccc2c(c1)nc(NCc1ccc3c(c1)OCO3)n2CCN1CCOCC1	18
16	CS(=O)(=O)N(CC(=O)NCc1ccccc1Cl)c1cccc([N+](=O)[O-])c1	13
17	CCC(C)[C@H](NC(=O)NC1CCCc2ccccc21)C(=O)OC (stereo not given in full)	20
18	O=C(CSc1nnc(-c2cccnc2)n1-c1ccc(F)cc1)NCc1ccc2c(c1)OCO2	18
19	COC(=O)c1cccc(NC(=O)c2cnoc2C)c1	14
20	COc1cc(SC)ccc1C(=O)Nc1nc(C)cs1	3
21	COC(=O)Nc1ccc(Cc2ccncc2)cc1	7
22	CCc1[nH]c(=S)c(C#N)c(-c2ccccc2)c1C(=O)OC	17
23	CSc1nc(-c2ccc(Cl)cc2)c(C#N)c(=O)[nH]1	13
24	CCOC(=O)Cn1c(=NC(=O)C(C)(C)C)sc2cc([N+](=O)[O-])ccc21	14
25	CN1CCN(S(=O)(=O)c2cc([N+](=O)[O-])ccc2Cl)CC1	3
26	CCOc1cc(C(=S)N2CCOCC2)ccc1OS(=O)(=O)c1ccccc1[N+](=O)[O-]	22
27	COc1cc(Cl)c(S(=O)(=O)n2cnc(C)c2)cc1Cl	-1
28	Cc1cccc(NC(=O)CSc2nc(C)c(Cc3ccccc3)c(=O)[nH]2)c1	4
29	CCC(=O)NC(=S)Nc1ccc2oc(-c3ccc(OC)cc3)nc2c1	7
30	FC(F)(F)c1cccc(NC(=S)NCCN2CCOCC2)c1	0
31	CCOc1ccc(Oc2c(/C=N/NC(=O)C3CC3)c(C)nn2-c2ccccc2)cc1	20
32	CCN1CCN(Cc2ccc(NC(=O)c3ccc(C)c(NC(=O)c4cccc5[nH]ccc45)c3)cc2C(F)(F)F)CC1	18
33	O=C(CCc1ccccc1)Nc1nnc(-c2ccccn2)o1	10
34	O=C(CCN1C(=O)c2cccc3cccc(c23)C1=O)N1CCOCC1	16
35	COC(=O)c1nnn(CC(=O)NC(=O)Nc2ccccc2)c1C(=O)OC	9
36	CCOC(=O)N1CCC(NC(=O)c2ccc3nc(N4CCOCC4)sc3c2)CC1	23
37	O=Cc1ccccc1OCCOc1ccccc1C=O	4
38	O=C(O)CSc1nnc(-c2ccc3c(c2)OCO3)n1-c1ccccc1	9
39	CCOC(=O)NC(=O)/C(C#N)=C\c1ccccc1	13
40	O=C(CN1CCN(c2ccc([N+](=O)[O-])cc2)CC1)Nc1ccccn1	6
41	COc1ccccc1NC(=O)COC(=O)Cc1ccc(S(=O)(=O)N2CCCCC2)s1	2
42	Cc1cc(=O)oc2cc(OCCSCCN3CCCCC3)ccc12	11
43	O=C(CNC(=O)c1ccc(Br)cc1)NCC(=O)OCC(=O)c1ccc([N+](=O)[O-])cc1	21
44	O=C(c1ccccc1SCc1ccccc1)N1CCOCC1	18
45	CCOC(=O)c1c(C)[nH]c(C)c1C(=O)CSc1nnc(N)s1	10
46	O=C(COC(=O)CCC(=O)c1cccs1)NCc1ccc(Cl)cc1	4
47	CC(=O)Nc1ccc2c(CSc3nncs3)cc(=O)oc2c1	16
48	COC(=O)c1cc(N=CC2=C(O)CC(C)(C)CC2=O)cc(C(=O)OC)c1	17
49	N=C(N)SCc1ccccc1Cl	7
50	CCCCc1nc2sc3c(=O)[nH]cnc3c2c2c1CCCC2	15
51	S=C(Nc1ccccc1Cl)N1CCN(Cc2ccccc2)CC1	20
52	CC(Sc1nncn1C)C(=O)Nc1ccc(S(N)(=O)=O)cc1 (stereo not given)	19
53	COc1ccc(-[n+]2c(C)cc(/C=C3\Sc4ccccc4N3C)cc2C)cc1	24
54	Cc1ccc(NC(=O)N[C@@H](CC(C)C)C(=O)O)c(C)c1	30
55	O=C(Cn1ccc([N+](=O)[O-])n1)c1ccccc1	-5
56	S=C(Nc1ccccc1Cl)NC1CC2CCCC(C1)N2C1CC1 (stereo not given)	12

# The results go on.
no.	molecule	Biofilm kill mix
57	O=C(O)c1csc(-c2ccc(Cl)cc2)n1	4
58	OCCCCNCc1ccc(OCc2ccccc2)cc1	10
59	c1ccc(-c2cc(-c3ccccc3)n3ncnc3n2)cc1	14
60	CC(C)=Cc1c(O)nc2ccccn2c1=O	21
61	CC(C)OC(=O)CN1CCN(c2ccc(Cl)cc2)CC1	14
62	COc1ccc(CNC(=S)Nc2ccc3nc(N4CCOCC4)cc(C)c3c2)cc1	4
63	CSc1c(C#N)c(N)nc2sc(C(=O)c3ccc(Cl)c(Cl)c3)c(N)c12	15
64	CC(C)(C)NC(=S)NNC(=O)c1ccncc1	-4
65	CCC(OC(=O)c1nsc(Cl)c1Cl)C(=O)NCc1cccs1 (stereo not given)	1
66	Cc1c(C(=O)Nc2ccc3c4c(cccc24)CC3)cccc1[N+](=O)[O-]	3
67	COc1ccc(CC(=O)Nc2nn(C)c3nc4c(C)cccc4cc23)cc1	28
68	CC(C)(O)[C@H](O)COc1c2ccoc2cc2oc(=O)ccc12	20
69	CCn1ncc(CNC(=O)C2(C)CC2(Cl)Cl)c1C (stereo not given)	6
70	COC(=O)c1ccc(NC(=O)Cn2nnc(-c3cccs3)n2)cc1	-8
71	O=C(/C=C/c1ccc(Cl)cc1)Nn1c(-c2cccs2)nc2ccccc2c1=O	14
72	CC(=O)Nc1ccc(S(=O)(=O)N[C@@H](C)C(=O)OCc2cc([N+](=O)[O-])cc3c2OCOC3)cc1	20

# Sorted by heavy-atom count (lowest first): part of the list above.
no.	molecule	Biofilm kill mix
68	CC(C)(O)[C@H](O)COc1c2ccoc2cc2oc(=O)ccc12	20
70	COC(=O)c1ccc(NC(=O)Cn2nnc(-c3cccs3)n2)cc1	-8
67	COc1ccc(CC(=O)Nc2nn(C)c3nc4c(C)cccc4cc23)cc1	28
71	O=C(/C=C/c1ccc(Cl)cc1)Nn1c(-c2cccs2)nc2ccccc2c1=O	14
72	CC(=O)Nc1ccc(S(=O)(=O)N[C@@H](C)C(=O)OCc2cc([N+](=O)[O-])cc3c2OCOC3)cc1	20

# Further entries.
no.	molecule	Biofilm kill mix
73	CCOc1ccc(NC(=O)C2=C(C)NC(=S)NC2c2ccc(O)c(OC)c2)cc1 (stereo not given)	-4
74	O=c1[nH]c(-c2ccccn2)cc2ccccc12	10
75	CCC(=O)N(C)CCc1cc2c(c(OC)c1/C=N/Nc1ccc(C(=O)O)cc1)OCO2	23
76	CCC(C)NC(=O)Cn1cnc([N+](=O)[O-])c1 (stereo not given)	-16
77	Cc1nc2c(C)cccn2c1C(=O)N/N=C/c1ccccc1[N+](=O)[O-]	14
78	CCN(CC)S(=O)(=O)c1ccc(N2CCOCC2)c(NC(=O)c2cc(=O)[nH]c3ccccc23)c1	1
79	O=C(/C=C/c1ccccc1)NC(N1CCOCC1)C(Cl)(Cl)Cl (stereo not given)	11
80	Cc1oc(C(C)(C)C)cc1C(=O)Nc1ccc2c(c1)OCO2	16
81	C(=N\Nc1nn2cnnc2c2ccccc12)/c1ccco1	11
82	Cc1nc(C/C(=N\Nc2ccccc2)c2ccc(O)cc2O)cs1	14
83	C/C(=N\NC(=O)c1ccc(NS(=O)(=O)c2cccs2)cc1)c1cccs1	11
84	CC12CS(=O)(=O)CC1SC(=S)N2Cc1ccccc1 (stereo not given)	19
85	O=C1CC(N2CCSCC2)C(=O)N1c1cccc(Cl)c1 (stereo not given)	10
86	COc1cc(OC)cc(C(=O)N[C@H](C(=O)OCn2nnc3ccccc3c2=O)C(C)C)c1	16
87	CC(=O)N1c2c(cc(Br)cc2S(=O)(=O)Nc2c(C)n(C)n(-c3ccccc3)c2=O)CC1C (stereo not given)	16
88	Cc1cc(OCC(=O)N(C)C2CCCCC2)ccc1Cl	-1
89	Nc1nc(N)nc(COc2ccccc2)n1	18
90	CCN(CC(=O)Nc1sc2c(c1C#N)CCC(C)C2)CC(=O)NC1CCS(=O)(=O)C1 (stereo not given)	17
91	COc1cc(/C=C2\SC(=Nc3ccccc3)N(Cc3ccco3)C2=O)ccc1OC(C)C(=O)O (stereo not given)	15
92	CCCNC(=S)N1CCC(C(=O)c2ccc3c(c2)OCCO3)CC1	5
93	CCN(CC)c1ccc(S(=O)(=O)N2CCOCC2)cc1NC(=O)c1cc(=O)c2ccccc2o1	29
94	C=CCOc1ccc2nnc(C)n2n1	9
95	Cc1ccc(Cl)cc1NC(=O)COC(=O)c1ccccc1O	17
96	CCOC(=O)c1cc(-c2ccccc2)n(CC(=O)Nc2ccc(OC)cc2)c1C	6
97	CCN(Cc1cnn(C)c1)Cc1nc(Cc2ccccc2Cl)no1	23
98	O=C(CSc1nc2ccccc2o1)N/N=C/c1ccc(C(=O)O)cc1	20
99	COc1ccccc1N1C(=O)CC(N(O)c2ccccc2)C1=O (stereo not given)	6
100	Cc1ccc(C(=O)O)cc1NC(=O)CCc1ccccc1	14
101	CC1CCc2c(C(=O)Nc3ccccn3)csc2C1 (stereo not given)	19
102	CC(=O)Nc1ccc(SCC(=O)O)cc1	8
103	NC(=NC1CCCCC1)c1ccc(Cl)cc1	15
104	COC(=O)Cn1c(=NC(=O)c2ccc(Cl)s2)sc2cc(C)ccc21	9
105	COc1ccc(-c2cc(=Nc3ccc(C(=O)O)cc3)c3cc(C)ccc3o2)cc1	17
106	COc1ccc(CN2CCNC(=O)C2CC(=O)N(C)Cc2nccn2C)cc1OC (stereo not given)	9
107	CC(C)(C)c1cc(CN(CCO)CCO)c(O)c(C(C)(C)C)c1	1
108	CCOC(=O)c1cc(NC(=O)Nc2ccc(Br)cc2)c(C)nc1C	23
109	CC(=O)c1ccc(NC(=S)N(CCCN(C)C)Cc2ccccc2)cc1	4
110	COC(=O)c1ccccc1NC(=O)NCc1c(C)nn(C)c1C	2
111	CCN(CC)CCn1c(N)nc2ccccc21	18
112	Cc1coc(=N)n1CC(=O)c1ccc(Cl)cc1	8
113	O=C(NC(=S)Nc1cccc(-c2ccc(CO)o2)c1)c1cccs1	18
114	COc1cc(C2c3c([nH]c(=O)[nH]c3=O)Nc3ccc4ccccc4c32)cc(OC)c1OC (stereo not given)	0
115	Cc1cccc(Nc2nc(CC(=O)O)cs2)c1	10
116	CC(=O)c1cccc(NC(=O)NCCc2c[nH]c3ccccc23)c1	16
117	COc1cc(/C=C(\C#N)C(=O)NCC2CCCO2)ccc1OCC(=O)O (stereo not given)	10
118	COc1ccc(CNC(=O)CN2C(=O)C3C4C=CC(C4)C3C2=O)cc1 (stereo not given)	2
119	O=C(C1=C[C@@H](c2ccc(Br)cc2)C[C@@H](OCCCCO)O1)N1CCOCC1	18
120	CC(=O)N1CCN(C(=S)NC(=O)c2ccc(S(=O)(=O)N3CCOCC3)cc2)CC1	18
121	Cc1ccc(NC(=O)NCc2ccc3c(c2)OCO3)cc1C	17
122	CCOC(=O)C1=NOC(CN(c2ccccc2)S(=O)(=O)c2ccc(Cl)cc2)C1 (stereo not given)	25
123	CCCCCCNc1nc(-c2ccc(OC)cc2)c(CCC(=O)O)s1	15
124	O=C1NCN(c2ccccc2)C12CCN(CCCC(c1ccc(F)cc1)c1ccc(F)cc1)CC2	11
125	O=C(N/N=C/CCc1ccccc1)c1ccc(CN2c3cccc4cccc(c34)S2(=O)=O)cc1	8
126	CCc1c(C)[nH]c2ccc(OC)cc2c1=S	12
127	CCn1cc([N+](=O)[O-])c(C(=O)Nc2nc3ccc(OC)cc3s2)n1	22
128	O=C(c1ccco1)[C@@H]1[C@@H]2C(=O)N(c3ccc(F)cc3)C(=O)[C@@H]2[C@H]2C=Cc3ccccc3N21	27

# (list continues)
no.	molecule	Biofilm kill mix
129	CC(Sc1nnc(COc2ccc([N+](=O)[O-])cc2)n1C)C(=O)O (stereo not given)	12
130	CCc1ccc(/C=C2\Oc3cc(OC(=O)N4CCOCC4)ccc3C2=O)cc1	14
131	Cc1cc(C)c2[nH]c(=O)c(CN(Cc3cccnc3)C(=S)NCCCN(C)C)cc2c1	-3
132	Cc1cc(C)nc(N/N=C/c2ccccc2Cl)n1	7
133	Cc1nc2ccccc2cc1C(=O)Nc1ccccc1Cl	10
134	Cc1ncc(C[n+]2csc(CCOC(=O)C34CC5CC(CC(C5)C3)C4)c2C)c(N)n1	13
135	COc1cc2nc(CN3CCN(S(=O)(=O)c4ccc(Cl)cc4)CC3)[nH]c(=O)c2cc1OC	17
136	CCOc1ccc(NC(=O)c2ccc(CSc3nnc(C)s3)cc2)cc1	22
137	O=C(CN1CCC(C(=O)c2cccc(Cl)c2)CC1)Nc1ccc(C(=O)O)cc1	26
138	CCC(=O)Nc1cccc(C2=NOC3(C2)C[C@H](C(N)=O)N(C(=O)c2ccc(Cl)cc2)C3)c1 (stereo not given in full)	14
139	COc1ccc(NC(=O)CCC(=O)NCCO)cc1	31
140	O=C(Nc1cc2ccccc2oc1=O)c1ccccc1	-2

# Bioassay records deposited in PubChem BioAssay by PCMD.
